High-throughput results from PubChem BioAssay.
Anthrax LT inh: inhibitors of anthrax lethal toxin internalization. Cells, anthrax lethal toxin internalization, FRET ratio (460/530). Potency, µM (top dose mostly 40 µM), inactives show top-dose activity change, negative = inhibition, hits mostly inhibitors. hit rate 0.67% among 70,000; active = well fitted falling ratio curve with the 530 nm signal flat; inconclusive = other ratio curves, or a change in one channel alone; inactive = flat curves in the ratio and both channels; the % refers to the ratio; note: % is set by controls: 0 for no effect and ±100 for the full control effect; nearly all actives have a fitted effect of over 50% in size; tested in ME-180 cells; beta-lactamase reporter
Prx2 Sm inh: inhibitors of Schistosoma mansoni peroxiredoxin 2 | hit rate 0.07% among 65,000 | Potency, µM | S. mansoni Prx2 activity coupled to TGR/GSH (TGR is thioredoxin glutathione reductase), NADPH fluorescence loss, qHTS; some inactives read as strong as hits; active means full or partial inhibition curve with a strong effect at the top dose; inconclusive means weaker partial or single-point curve; inactive means no accepted curve; note: series up to 57 µM; many of its hits are not listed in these tables
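Purified S. mansoni TGR and Prx2 in pH 7.4 phosphate buffer with EDTA and Tween-20 were preincubated with compounds for 15 min. Further NADPH/GSH was added, then a 2.5 mM H2O2 aliquot initiated turnover, followed kinetically by NADPH fluorescence.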
* = called active by the depositor; ? = inconclusive; nt = not tested or not shown; & = joins results of further samples; [ ] = remark or other dose. Potency is the fitted concentration of half-maximal effect. A portion of the library. The share of hits here may be higher or lower than overall.

Below each compound: Anthrax LT inh, Prx2 Sm inh
COc1ccc(OC)c(NC(=O)CSc2nnc(CCCO)n2-c2ccccc2)c1
    -3%, >57
COc1ccc(Oc2ncc3nc(-c4ccc(F)cc4)c(=O)n(Cc4cccs4)c3n2)cc1
    ?, >57
COc1ccccc1CNC(=O)C1CCN(S(=O)(=O)c2c(C)noc2C)CC1
    -7%, >57
CCC(=O)N1CCc2cc(S(=O)(=O)N3CCc4ccccc43)ccc21
    -7%, >57
CC(=O)N1CCN(c2ccc(S(=O)(=O)N3CCCCC3)cn2)CC1
    -19%, >57
COc1ccccc1OC(C)C(=O)O (configuration not stated)
    5%, >57
COc1ccc(CC(=O)Nc2cccc(-c3nnc(-c4cccc(C)c4)o3)c2)cc1OC
    ?, >57
COc1ccc(NC(=O)N2CCCC3(CCN(C(=O)c4cc(C(F)(F)F)cc(C(F)(F)F)c4)CC3)C2)cc1
    ?, >57
CN(C)S(=O)(=O)c1ccc(C(=O)N2CCC(c3nc4ccccc4o3)CC2)cc1
    0%, >57
CCN=C=NCCCN(C)C
    1%[8 µM], >57
Cn1c(=O)c2c(nc(SCC(=O)N3c4ccccc4CCc4ccccc43)n2C)n(C)c1=O
    -12%, >57
O=C(O)CS(=O)(=O)C(c1ccccc1)c1ccccc1
    -7%[8 µM], >57
Cc1cc(Cl)ccc1OCC(=O)Nn1c(C)ccc1C
    -1%, >57
C(#CCN1CCOCC1)COCc1ccccc1
    7%, >57
CCn1nc(C(=O)OCC(=O)N2CCc3ccccc32)c2ccccc2c1=O
    8%, >57
CC(C)C(NC(=O)c1cccc(S(=O)(=O)N2CCOCC2)c1)C(=O)NCCc1ccccn1 (configuration not stated)
    -4%, >57
O=C(CSc1ncccc1-c1nc2ccccc2[nH]1)N1CCN(c2ccccc2F)CC1
    -24%, >57
CCCC[C@H]1C[C@@H]1[C@@H]1N(C(C)=O)[C@H](c2cccc(OC)c2)CC12CC2
    -9%, >57
CCC(C)NC(=O)c1c(C)cc(=O)oc1C (configuration not stated)
    10%, >57
Cc1ccc(Cn2c(Sc3nccc(C)n3)nc3c2c(=O)[nH]c(=O)n3C)cc1
    -21%, >57
Cc1c(C(=O)NC2=NCCS2)oc2ccccc12
    8%, >57
Cc1cc(C)c(S(=O)(=O)Nc2nnc(C)s2)c(C)c1
    -8%, nt
CCc1nnc(SCC(=O)Nc2ccc(C(C)=O)cc2)nc1CC
    -3%, >57
CCC1C(O)=C(c2ccccn2)C(=N)N1c1ccccc1 (configuration not stated)
    -8%, >57
Nc1cc(C(=O)N2CCCC2)cc(C(=O)N2CCCC2)c1
    2%, >57
COc1ccc(NC(=O)C2CCC(=O)N2S(=O)(=O)c2ccc(C)cc2)c(OC)c1 (configuration not stated)
    -1%, >57
Cc1cc(C)c(Cn2c(=O)n(CCCC(=O)NCc3ccco3)c(=O)c3ccccc32)c(C)c1
    5%, >57
O=C(C1CCC1)N1CCN(Cc2ccccc2)CC1
    6%, >57
O=C(O)CC(c1ccccc1)n1cccc1 (configuration not stated)
    ?, >57
CN(C(=O)c1coc(=O)c2ccccc12)c1ccc(F)cc1
    1%, >57
COC(=O)C/C=C1\c2ccccc2[C@H](OC)[C@H]1C
    -1%[8 µM], nt
COC(=O)c1cn(NC(=O)c2ccc3c(c2)OCO3)c(=O)c2ccccc12
    3%, >57
CCc1ccc(NC2=NC(C(=O)c3ccccc3)CC(=O)N2)cc1 (configuration not stated)
    -17%, >57
O=C(CSc1nc2ccccc2o1)NCc1n[nH]c(=O)c2ccccc12
    -3%, >57
OCCNc1nc2ccc(Cl)cc2[nH]1
    2%, >57
COc1ccccc1N1CCN(CC(O)COc2ccc3c(C)cc(=O)oc3c2)CC1 (configuration not stated)
    ?, >57
Cc1cccc(OCCC(=O)Nc2ccc(S(=O)(=O)N3CCCC3)cc2)c1
    -8%, >57
O=C(Cc1c[nH]c2ccccc12)N1CCc2ccccc21
    7%, >57
Cc1ccc(C)n1NC(=O)c1ccco1
    1%, >57
COc1ccc2cc(C)c(SCC(=O)Nc3cc(C)on3)nc2c1
    2%, >57

A second format for two compounds above.
Compound | Anthrax LT inh | Prx2 Sm inh
O=C(Cc1c[nH]c2ccccc12)N1CCc2ccccc21 | 7% | >57
Cc1ccc(C)n1NC(=O)c1ccco1 | 1% | >57

New compounds follow
Below each compound: Anthrax LT inh, Prx2 Sm inh
OC[C@@H]1O[C@@H](n2cnc3cncnc32)[C@@H](O)[C@H]1O
    -1%, >57
CCOc1ccc(CNc2ccc3c(c2)ncn3C)cc1
    2%, >57
CC(C)CCC1(CCN)C(=O)NC(=O)NC1=O
    -10%[8 µM], >11
O=C1c2ccccc2C(=O)c2c1ccc(C(=O)O)c2-c1ccc2ccccc2c1
    -3%[8 µM], >57
COc1ccc(S(=O)(=O)N2CCN(C(=O)NCc3ccccc3)CC2)cc1
    -7%, >57
O=C(Nc1ccn(-c2ccccc2)n1)c1ccc(S(=O)(=O)N2CCCCCC2)cc1
    ?, >57
Cc1ccc(Cl)cc1N1CCN(C(=O)C2CCN(S(=O)(=O)c3c(C)nn(C)c3C)CC2)CC1
    ?, >57
Nc1ccccc1-c1nc2ccccc2[nH]1
    5%, nt
CCOC(=O)/C=C(\C)Sc1cc(=O)oc2ccccc12
    -9%, >57
Nc1nsnc1C(=O)NCCO
    0%, >57
O=C(O)C1C2C=CC(C2)C1C(=O)Nc1cccc(F)c1 (configuration not stated)
    -5%, >57
Cc1cc(C)nc(SCCC(=O)N(C)C)n1
    -6%, >57
COc1cc2c(C(=O)N3CCN(C4CCCCC4)CC3)cn(CC(C)C)c(=O)c2cc1OC
    2%, >57
O=C(C1CCN(S(=O)(=O)N2CCOCC2)CC1)N1CCN(c2ccccc2)CC1
    -8%, >57
C=CCn1c(N)c(C(=O)OCCC)c2nc3ccccc3nc21
    ?, >57
CC(C)C(=O)NCCn1ccc2ccccc21
    -6%, >57
CC1(C)C(=O)OC(C(=O)c2ccccc2)C(C)(C)C1=O (configuration not stated)
    -8%, >57
CCn1nc(C(=O)NCCc2ccc(S(N)(=O)=O)cc2)c2ccccc2c1=O
    9%, >57
COC(=O)c1cc(N2C(=O)C3C(C2=O)C2(C)C=CC3(C)O2)ccc1Cl (configuration not stated)
    ?, >57
CCOC(=O)c1cnn(-c2ccccn2)c1N
    -4%, >57
CC(=O)c1ccc(OC2C(O)COC2/C=C/c2ccc(Cl)cc2)cc1 (configuration not stated)
    -5%&-10%[8 µM], nt
C=C/C1=C/Cc2ccccc2C(C[N+](=O)[O-])C(C(=O)OC)(C(=O)OC)C1 (configuration not stated)
    -95%[8 µM], nt
CSc1nc(N)nc(SCC(=O)c2ccc(C)cc2)c1C#N
    ?, >57
C=C(C)Cn1c(SCC#N)nc2ccccc2c1=O
    -9%, >57
CC1(C)CC(=O)C=C(Nc2ccccc2NC(=O)c2cnccn2)C1
    -16%, >57
CN1CCN(CCCNC(=O)Cn2nc(-c3ccccc3)ccc2=O)CC1
    25%, >57
COCC(C)NC(=O)NC(=O)c1ccc(Cl)cc1 (configuration not stated)
    3%, >57
COC(=O)c1ccc(CSc2nnc(CNC(=O)c3cccs3)o2)o1
    -9%, >57
CNc1oc(-c2ccco2)nc1C#N
    0%, >57
O=C(O)c1ccc(COc2ccccc2Cl)cc1
    6%, >57
CC(=O)c1c(C)c[nH]c1C
    0%, >57
Cc1nc(NC(CC(C)C)C(=O)O)c2nc(C)oc2n1 (configuration not stated)
    -7%, >57
Cc1cc2occ(CC(=O)O)c2cc1C
    11%, >57
CCOC(=O)C1CCN(Cc2ccccc2C(F)(F)F)CC1
    4%, >57
COC(=O)Cn1nc(-c2ccccc2)c2ccccc2c1=O
    -2%, >57
CN1CCC2(CC1)CCN(S(=O)(=O)c1ccccc1)CC2
    12%, >57
CCNC(=O)CN(C1CCCCC1)S(=O)(=O)c1ccc(F)cc1
    -11%, nt
CCOC(=O)C1=C(CN2CCSCC2)NC(=O)NC1c1cc(C)ccc1C (configuration not stated)
    4%, >57
Cn1c(NC(=O)c2cccc(Cn3cc(Cl)cn3)c2)nc2ccccc21
    9%, >57
COc1ccc(/C(O)=C2/C(=O)C(=O)N(CCN(C)C)C2c2ccc(F)cc2)cc1Cl (configuration not stated)
    -16%, >57
O=C1CC(c2cc3c(cc2Br)OCO3)C2=C(CCCC2=O)N1 (configuration not stated)
    -10%, >57
CC(C)NC(=O)N1CC[C@@]2(CCCN(S(C)(=O)=O)C2)C1
    0%, >57
CCOc1ccc(Oc2nc(Nc3ccc(C)cc3)nc(N(C)C)n2)nn1
    ?, >57
CC(Sc1nnc(N)s1)c1ccccc1Cl (configuration not stated)
    -5%, >57
CCN(CC)CCCN1C(=O)C(O)=C(C(=O)c2ccc(C)o2)C1c1cccs1 (configuration not stated)
    -9%, nt
Cc1ccc(NC(=O)CS(=O)(=O)c2c[nH]c3ccccc23)c(C)c1
    1%, >57
NCC(=O)Nc1ccccc1
    -2%[8 µM], >57
COCC(C)n1c(C)cc(C(=O)COC(=O)c2c(C)nn(-c3ccccc3)c2C)c1C (configuration not stated)
    -14%, >57
C=CCNC(=O)c1sc(=S)n(-c2ccc(C(=O)OCC)cc2)c1N
    -1%, >57
O=c1[nH]c(N2CCOCC2)nc2c1CCCC2
    nt, >57
COc1ccc(-c2nc(C#N)c(NC(C)c3ccccc3)o2)cc1OC (configuration not stated)
    16%, nt
Cc1ccc(S(=O)(=O)NC2(C(F)(F)F)NC(=O)N(C)C2=O)cc1 (configuration not stated)
    -6%, >57
O=C(c1cccnc1)N1CCN(Cc2ccc3c(c2)OCO3)CC1
    -2%, >57
O=C(CSc1ccccn1)c1ccc2c(c1)OCO2
    -20%, nt
CCCc1cc(=O)n2[nH]cnc2n1
    nt, >57
CC(=O)NCCNc1ncnc2ccc(-c3ccc(C(=O)N(C)C)cc3)cc12
    -2%, >57
O=C(Cc1ccccc1)N[C@H](c1ccccc1)P(=O)(O)CO
    2%, >57
CCOC(=O)C1Cc2c([nH]c3ccccc23)CN1 (configuration not stated)
    23%, >57
CN(C)S(=O)(=O)N1CCN(C(=O)N2CCCCC2)CC1
    nt, >57
O=S(=O)(c1ccc(S(=O)(=O)N(Cc2ccc(F)cc2)C2CCCC2)cc1)N1CCCC1
    -29%, >57

(further entries)
Below each compound: Anthrax LT inh, Prx2 Sm inh
CCCN(CCC)S(=O)(=O)c1ccc2c(c1)CCCN2C(C)=O
    13%, >57
O=c1c(-c2nc3ccccc3o2)c2oc3ccccc3n2c2ccccc12
    13µM*, >57
CCCS(=O)(=O)N1CCCC(C(=O)NCCCN(C)c2ccccc2)C1 (configuration not stated)
    12%, >57
O=c1cc(-c2ccc(O)c(O)c2)oc2cc(O)cc(O)c12
    ?, >26&>57
[O-][N+]12CCN(CC1)c1ccccc12
    nt, >57
CCOC(=O)Cn1cnc2sc3c(c2c1=O)CCC3
    13%, >57
O=C(c1c(F)cccc1F)N1CCN(c2ccccc2F)CC1
    2%, >57
CCOC(=O)N1CCN(S(=O)(=O)c2ccc(C)c(C)c2C)CC1
    17%, >57
CCNc1nnc(-c2ccccc2OC)s1
    3%, nt
C=C1CC[C@@H]2[C@](C)(CC[C@@H](O)[C@]2(C)CO)[C@@H]1C/C=C1/C(=O)OC[C@H]1O
    ?, >57
C=CCSc1nc2c(c(=O)[nH]c(=O)n2C)n1C/C=C(/C)Cl
    -8%, >57
COC(=O)c1ccccc1C(=O)OC
    5%, nt
Cc1ccc(NC(=O)Cn2c(C)cc(C)c(C#N)c2=O)c(Cl)c1
    -7%, >57
CCn1cnc2c1c(=O)n(Cc1nnc3n1-c1ccccc1SC3)c(=O)n2Cc1ccccc1
    -8%, >57
Oc1ccc2c3c1O[C@H]1c4[nH]c5ccccc5c4C[C@]4(O)[C@H](C2)N(CC2CC2)CC[C@@]314
    ?, >57&>57
Cc1cccc(C)c1NC(=O)C[N+](C)(C)C
    -8%&-9%, >57&>57
CC(=O)Nc1nc(-c2ccc(Br)s2)cs1
    -2%, >57
CCOc1ccc2c(c1)sc(=NC(=O)C1CC1)n2C
    -3%, >57
CCCS(=O)(=O)N1CCC(C(=O)NCCN(C)Cc2ccccc2)CC1
    5%, >57
CCOC(=O)N1CCC(NC(=O)C2CCCN(C(=O)N3CCOc4ccccc43)C2)CC1 (configuration not stated)
    10%, >57

Sorted by heavy-atom count (ascending): 3 of the compounds above.
Below each compound: Anthrax LT inh, Prx2 Sm inh
C=C1CC[C@@H]2[C@](C)(CC[C@@H](O)[C@]2(C)CO)[C@@H]1C/C=C1/C(=O)OC[C@H]1O
    ?, >57
O=c1c(-c2nc3ccccc3o2)c2oc3ccccc3n2c2ccccc12
    13µM*, >57
CCOC(=O)N1CCC(NC(=O)C2CCCN(C(=O)N3CCOc4ccccc43)C2)CC1 (configuration not stated)
    10%, >57

(cont.)
Below each compound: Anthrax LT inh, Prx2 Sm inh
Cc1cc(NC(=O)CSc2nnnn2C2CCCC2)no1
    ?, >57
CCC(NS(=O)(=O)c1c(C)[nH]c(=O)[nH]c1=O)C12CC3CC(CC(C3)C1)C2 (configuration not stated)
    -11%, >57
COC(=O)c1[nH]c2ccc(C)cc2c1NS(=O)(=O)c1ccc(F)c(C)c1
    ?, >57
O=[N+]([O-])c1ccccc1S(=O)(=O)NCC1CCC(CNCC2CCc3ccccc3C2)CC1 (configuration not stated)
    ?, nt
